# gsp agonist = qHTS for Agonist of gsp, the Etiologic Mutation Responsible for Fibrous Dysplasia/McCune-Albright Syndrome: qHTS; gsp mutant cells, cAMP HTRF, 30 min; control for the full effect not named in the record; Potency, µM (doses to about 76.9 µM), for the others: top-dose activation (cAMP increase), usual class: activators; 0.13% of 340,000 active; AID 624287, 2012; active = well fitted activation curve with a large enough effect; inconclusive = small, poorly fitted or top-dose-only effect, or another doubt; inactive = no such curve, though single readings can be large or run the other way; cell line not stated here;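 further: phosphodiesterase inhibitor Ro 20-1724 added with compounds to block cAMP breakdown; potency means the concentration at half of the fitted maximal effect; nearly all actives have a fitted effect of over 60% in size; about a fifth of the inactives were tested at one dose only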
#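 Cells stably selected in G418 were plated at 2000/well, grown 16-24 hr, then given compounds in DMSO with the PDE inhibitor […] (300 uM solution added) for 30 min at 37C; cAMP was read by HTRF.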
# Sfp PPTase inh = qHTS Assay for Inhibitors of Bacillus subtilis Sfp phosphopantetheinyl transferase (PPTase) | 4'-phosphopantetheinyl transferase ffp (Bacillus subtilis), Q9F4F7 | Biochemical Sfp PPTase activity, qHTS | Potency, µM, for inactives: max response, negative = inhibition, hits mostly inhibitors | 3.5% of 310,000 active; active means well fitted inhibition curve with a large enough effect; inconclusive means small, poorly fitted or top-dose-only effect, or another doubt; inactive means no such curve, though single readings can be large or run the other way;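 further: the enzyme is Sfp with the accession as filed and its product quenches rhodamine fluorescence; potency means the concentration at half of the fitted maximal effect; 0% = enzyme reaction without inhibitor and -100% = no enzyme wells; top concentration of the series not given in the record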
#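 Sfp 15 nM + cpd, 15 min RT; start w/ rhodamine-CoA 5 uM, BHQ-2-YbbR 12.5 uM (final); 50 mM Hepes pH 7.6, 10 mM MgCl2, 0.01% NP-40, 0.01% BSA; read 525/598 nm at 0 and 30 min.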
# Menin-MLL FL inh = qHTS Assay for Inhibitors Targeting the Menin-MLL Interaction in MLL Related Leukemias: Competition With Fluorescein Labeled MLL-derived Peptide; FP activity change, % at 61.4 µM; Fluorescence polarization, fluorescein-MLL peptide displacement from menin; 290,000 tested, under 10 active; AID 1766, 2009; inconclusive = falling polarisation curve, or a change in total fluorescence; inactive = total fluorescence flat and polarisation flat or rising; no compound was filed as active; the % refers to the polarisation; negative = inhibition;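 further: % of control where 0% means no effect; inhibitors lower the polarisation; unlabelled MLL peptide was the positive control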
# TRPV1 PAM = HTS Assay for Compounds that Act as Potentiators of the Vanilloid Receptor 1; potentiation, % at 8.33 µM; AID 540277, 2011; 0.02% of 320,000 active; TRPV1-expressing cells, Fluo-8 calcium influx, capsaicin EC20 potentiation; host cell line not named in the record; control for the full effect not named in the record; Transient receptor potential cation channel subfamily V member 1 (Homo sapiens), Q8NER1; active means potentiation above 80%; inconclusive means 30% to 80%; inactive means below 30%; further: 0% is about no effect
# Target sequence (Q8NER1 whole entry, looked up): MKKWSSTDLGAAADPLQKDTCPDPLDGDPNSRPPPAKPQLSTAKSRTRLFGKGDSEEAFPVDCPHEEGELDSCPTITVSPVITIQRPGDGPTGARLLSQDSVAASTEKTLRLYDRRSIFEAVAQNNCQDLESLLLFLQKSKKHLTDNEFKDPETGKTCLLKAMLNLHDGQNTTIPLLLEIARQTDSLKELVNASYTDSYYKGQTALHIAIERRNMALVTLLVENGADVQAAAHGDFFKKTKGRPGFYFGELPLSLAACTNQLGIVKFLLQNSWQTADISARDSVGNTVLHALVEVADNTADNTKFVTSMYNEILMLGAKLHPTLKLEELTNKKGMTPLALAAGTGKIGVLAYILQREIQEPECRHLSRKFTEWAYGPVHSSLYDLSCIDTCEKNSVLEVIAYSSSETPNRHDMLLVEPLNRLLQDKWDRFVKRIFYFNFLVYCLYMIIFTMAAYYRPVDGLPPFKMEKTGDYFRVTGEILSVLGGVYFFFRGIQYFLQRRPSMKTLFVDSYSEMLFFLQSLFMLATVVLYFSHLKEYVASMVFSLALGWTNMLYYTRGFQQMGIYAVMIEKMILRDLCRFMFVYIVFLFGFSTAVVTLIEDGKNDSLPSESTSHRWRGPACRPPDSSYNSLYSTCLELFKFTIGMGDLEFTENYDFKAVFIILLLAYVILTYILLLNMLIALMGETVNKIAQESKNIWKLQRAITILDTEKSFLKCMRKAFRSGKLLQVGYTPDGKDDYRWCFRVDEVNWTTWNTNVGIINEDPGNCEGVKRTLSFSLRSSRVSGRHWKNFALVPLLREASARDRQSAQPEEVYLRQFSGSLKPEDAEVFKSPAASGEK
#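 Fluo-8 calcium influx in TRPV1-expressing cells, kinetic read (ex 480/em 520 nm). Compound added and read 3 min for agonist activity, followed by capsaicin at EC20 final and 2 min further read for enhancement.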
# ClpP mod = qHTS Assay for Activators of ClpP | ATP-dependent Clp protease proteolytic subunit (Bacillus subtilis (strain 168)), P80244 | Potency, µM (doses to about 57.5 µM), for inactives: top-dose activity change, negative = active | AID 651965, 2013 | 1.9% of 340,000 active | purified B. subtilis ClpP, FRET peptide cleavage, 20 min; active = well fitted falling curve with a large enough effect; inconclusive = small, poorly fitted or top-dose-only effect; inactive = no such curve, though single readings can be large or run the other way; further: potency means the concentration at half of the fitted maximal effect; the source files actives as falling curves though it sought activators and does not explain the sign; nearly all actives have a fitted effect of over 65% in size; many hits overshoot -100%
# Target sequence (P80244 whole entry, looked up): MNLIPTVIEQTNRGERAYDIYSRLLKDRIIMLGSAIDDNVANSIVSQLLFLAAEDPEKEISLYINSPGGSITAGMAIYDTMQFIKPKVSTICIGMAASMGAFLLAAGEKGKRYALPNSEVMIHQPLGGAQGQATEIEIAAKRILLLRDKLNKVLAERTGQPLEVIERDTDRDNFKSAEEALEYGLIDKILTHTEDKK
#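 ClpP 10 microg/mL final, pH 8 Tris/KCl buffer with BSA, glycerol, Tween-20; compound pinned in; FRET-FV substrate; RT 20 min; Ex320/Em430; ΔFRET vs ADEP 5.8 microM, DMSO, no enzyme.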
# gsp antagonist = qHTS for Antagonists of gsp, the Etiologic Mutation Responsible for Fibrous Dysplasia/McCune-Albright Syndrome: qHTS | gsp-mutant cells, cAMP HTRF, 30 min; control for the full effect not named in the record | Potency, µM (top dose mostly 76.9 µM), for the others: at the highest dose activity change, negative = inhibition, hits mostly inhibitors | 0.4% of 340,000 active | AID 624288, 2012; active = falling curve of any shape with a large fitted effect; inconclusive = falling curve, mostly with a smaller effect; inactive = flat or rising curve; cell line not stated here;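 further: intracellular cAMP measured with PDE inhibitor Ro 20-1724 present during compound exposure; potency means the concentration at half of the fitted maximal effect; on the % scale 0 is the no-effect control and ±100 the full control effect; nearly all actives have a fitted effect of over 65% in size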
#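 Cells, 2000/well, grown 16–24 h in DMEM 10% FBS with 0.5 mg/ml G418, then compounds plus […] (300 uM addition stock), 30 min at 37C. cAMP read by HTRF (cAMP-d2 and anti-cAMP antibody-K in lysis buffer) after 30 min RT.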
# TRPML1 inh = qHTS for Inhibitors of the Human Mucolipin Transient Receptor Potential 1 (TRPML1) | Mucolipin-1 (Homo sapiens), Q9GZU1 | TRPML1-inducible cells, Ca2+ dye fluorescence, FDSS; active compounds read low; inhibition of EC80 agonist-evoked calcium signal | activity change, negative = inhibition, % (no concentration beside the values) | 0.02% of 390,000 active | AID 624415, 2012; in the data active means activity change below about -50%; inconclusive means about -30% to -50%; inactive means above about -30%;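 further: stimulus is agonist 54-4 at its EC80 concentration; on the % scale 0 is the no-effect control and ±100 the full control effect; compound concentration not given in the record; the text of the record puts the active cut at -80%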
#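 Calcium fluorescence in TRPML1-DL cells induced overnight with Tet: a 110 s read after compound pin addition, then a 110 s antagonist read after challenge with 54-4 at 4 uM final (EC80).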
# * marks the source's active call; other numbers are inactive results; ? = inconclusive; · = not tested or not shown; [ ] = remark or other dose. Random draw from the library; 4.9% or so of the library scored in one or more.
SMILES,gsp agonist,Sfp PPTase inh,Menin-MLL FL inh,TRPV1 PAM,ClpP mod,gsp antagonist,TRPML1 inh
O=C(COc1ccccc1)Nc1ccc2c(c1)nc1n2CCSC1,26%,8%,4.9,7,0.8%,3%,-6
CCc1ccc2[nH]c(=O)c(C(c3nnnn3CCOC)N3CCN(c4ccc(F)cc4)CC3)cc2c1 (stereo not given),-1%,18µM*,-0.3,1,0.0%,-15%,2
Cc1ccc(NC(=O)CSCC(=O)NNC(=O)c2nn(C)c(=O)c3ccccc23)cc1,-18%,·,·,-11,0.7%,7%,5
O=C(Nc1ccc(Br)cc1)/C(=C/c1cccc([N+](=O)[O-])c1)NC(=O)C1CCCCC1,-34%,11%,-1.9,6,1.5%,-5%,38
Cc1nc(N2CCOCC2)nc(OC(C)C)c1[N+](=O)[O-],-30%[inhibitor],11%,17,-1,-0.8%,4%,-5
COc1cc(NS(=O)(=O)c2ccc(NS(=O)(=O)c3ccccc3)cc2)nc(OC)n1,13%,14%,2.6,7,3.5%,-4%,5
Cc1c(Cl)cccc1NC(=S)NC1CCN(Cc2ccccc2)CC1,0%,10%,1.5,-6,-1.6%,11%,10
Cc1nnc(SCCn2c(N3CC(C)CC(C)C3)nc3c2c(=O)n(C)c(=O)n3C)s1 (stereo not given),-8%,2%,1.9,3,-1.2%,-4%,21
COc1cc(NC(=O)c2ncn[nH]2)cc(OC)c1OC,4%[15.4 µM],-6%,0.6,-21,2.4%,11%,20
O=C(NN1C(=O)NC2(CCCCC2)C1=O)c1ccc(-c2ccc(Cl)cc2)o1,2%,·,·,7,6.3µM*,-11%,-2
Clc1ccccc1Cn1nnc2c(Nc3ccccc3)ncnc21,9%,-7%,-6.1,-7,-12%,-12%,1
CC1CCN(C(=O)CN(C)S(=O)(=O)c2cccc3nsnc23)CC1,-79%[inhibitor],9%,-0.5,-4,0.0%,2%,-10
COc1ccccc1-n1c(SCC(=O)O)nnc1-c1ccc(S(=O)(=O)N2CCCCC2)cc1,5%,4%,-2.0,-2,-6.4%,-2%,-2
COc1ccc2[nH]c3c(c2c1)CCN1C(=O)C(CC(=O)NC(C)(C)C)C[C@H](C(=O)N2CCCCC2)[C@@]31C (stereo not given in full),·,·,·,·,-3.2%,5%,-11
Cc1ccc(NC(CC(=O)c2ccccc2)C(=O)O)cc1Cl (stereo not given),?,?,12,2,-1.7%,-11%,·
CNC(=O)C1=C(C)Nc2nc3ccccc3n2C1c1cccc(OC)c1 (stereo not given),3%,-3%,4.7,?,-5.3%,8%,-12
O=C(NNc1ccc([N+](=O)[O-])cc1)C12CC3CC(CC(C3)C1)C2,-34%[inhibitor],-13%,5.3,-8,1.0%,-2%,8
CCCCSc1ccc2nc(-c3ccc(C#N)cc3)cn2c1,21%,3%,1.4,-15,?,-8%,24
O=c1oc2ccccc2n1CCCOc1ccccc1,-22%,11%,1.6,-15,-0.3%,-3%,6
O=C1CCCC(O)=C1C=NCc1ccccc1,-18%[15.4 µM],23%,-3.8,2,·,1%,0
CCN(CC)CCCN1C(=O)C(O)=C(C(=O)c2ccco2)C1c1ccc(C)o1 (stereo not given),10%,·,·,·,3.5%,0%,2
Cc1ccc(OCCn2cnc3sc(C(N)=O)c(C)c3c2=O)cc1,·,-14%,8.5,?,·,·,·
CCOc1ccc(NS(=O)(=O)c2ccc(OCC)c3ncccc23)cc1,-50%[inhibitor],-3%,3.5,5,-0.9%,?,43
Nc1c(N(Cc2ccco2)C(=O)COc2ccc(Cl)cc2)c(=O)[nH]c(=O)n1Cc1ccccc1,6%,·,·,·,1.1%,-7%,-8
CC1(C)CC(=O)C=C(c2ccc(-c3ccc(S(C)(=O)=O)cc3)cc2)C1=O,?,·,·,·,-0.2%,·,-10
Cc1c(C(=O)N2CCOCC2)oc2ccc(S(=O)(=O)N3CCCC3)cc12,-1%,-12%,2.6,-1,-0.4%,-6%,24
CCCCOC(=O)c1ccc(NC(=O)c2c(Cl)ccc(Cl)c2OC)cc1,-35%[inhibitor],22%,2.3,-2,?,-6%,5
COCCn1c(C)cc(C(=O)COC(=O)c2ccc(-n3nc(C)cc3C)cc2)c1C,-18%,2%,2.4,8,-1.8%,-13%,12
O=C1C2CC=C(Cl)CC2C(=O)N1CCCCCCN1C(=O)C2CC=C(Cl)CC2C1=O (stereo not given),-3%,0%,?,4,-2.1%,4%,8
COCCCn1c(=O)c2ccccc2n(CC(=O)Nc2ccc3c(c2)OCCO3)c1=O,0%[15.4 µM],0%,-6.4,-1,·,-23%,-12
COc1cc(C(=O)NNC(=S)NCc2ccco2)cc(OC)c1OC,-20%,25%,2.0,-1,2.6%,6%,11
COC(=O)c1ccccc1OCCOCCOc1cccc2ccc(C)nc12,0%[15.4 µM],12%,-1.5,16,0.8%,-25%,8
Cc1nnc(N2C(=O)c3ccc(Br)cc3C2=O)s1,-3%[15.4 µM],-3%,0.0,4,1.2%,-3%,9
CN(CC(=O)Nc1ccccc1Br)C(=O)CCSc1ccc(F)cc1,-11%[15.4 µM],·,·,21,1.2%,10%,-13
Cc1ccc(SCc2cc(=O)n(C)[nH]2)cc1,13%,-13%,3.0,-13,-0.8%,-15%,26
O=C(c1ccccc1)c1coc2c1C(=O)c1ccccc1C2=O,14%[15.4 µM],?,0.4,-1,·,-20%,12
NS(=O)(=O)c1cnccc1Oc1cccc(Cl)c1,-26%[15.4 µM],·,·,·,·,4%,-4
Cc1ccc(C2c3c(oc4ccc(Cl)cc4c3=O)C(=O)N2CCCN2CCOCC2)o1 (stereo not given),·,-29%,?,11,·,·,·
CCc1ccccc1NC(=O)CN(C)C(=O)CSc1nnc(Nc2ccc(C)cc2)s1,-41%,8%,2.4,-3,1.0%,-16%,19
O=C(COC(=O)c1cccnc1Cl)Nc1ccc(S(=O)(=O)N2CCOCC2)cc1,1%,·,·,·,·,-6%,-3
O=C(O)c1ccc(S(=O)(=O)N2CCOCC2)o1,-13%[15.4 µM],11%,-4.0,15,·,7%,6
COc1ccc(S(N)(=O)=O)cc1C(=O)NCC(C)(C)N1CCOCC1,13%,24%,-1.2,-10,·,6%,2
CCC1CCCCN1CCNS(=O)(=O)c1ccc2c(c1)CCN2C(C)=O (stereo not given),9%,6%,1.9,-4,-0.6%,-3%,-2
O=C(NCCN1CCOCC1)c1ccc(Cl)cc1[N+](=O)[O-],1%,9%,-0.3,·,2.5%,2%,1
O=C(Nc1ccc(N=Nc2ccccc2)cc1)c1cccc(Cl)c1,?,6%,-0.8,-19,0.3%,-2%,10
CCOc1ccc(C(=O)c2ccc(OCC)c(N)c2)cc1N,0%,5%,4.0,-7,-2.0%,7%,-3
CN(CCOc1ccccc1)C(=O)C1CCN(C(=O)c2ccc(Cl)cc2)CC1,-30%,16%,·,9,3.2%,-6%,-7
COCOCCn1cc(CN2CCS(=O)(=O)N(Cc3ccc(-c4ccc(C)cc4)cc3)C(CC(C)C)C2=O)nn1 (stereo not given),?,·,·,·,-3.9%,·,-21
O=C(c1ccc([N+](=O)[O-])cc1)c1cc2ccc(O)cc2oc1=O,8%,0%,0.2,-18,-0.6%,-20%,2
COc1ccccc1N1CCN(S(=O)(=O)Cc2ccccc2Cl)CC1,-40%[inhibitor],-9%,4.7,-9,0.2%,-11%,-3
CC(=O)Cn1cnc2c(cnn2-c2ccccc2)c1=O,-13%,14%,-0.1,29,-8.6%,11%,-9
COc1cc(C)c(S(=O)(=O)NCc2cccs2)cc1C,0%,-21%,2.5,15,-0.3%,-12%,-6
COc1cc(CNC(=O)c2ccc(Cn3nc(C)c(Cl)c3C)o2)cc(OC)c1,-43%[inhibitor],2%,0.5,26,1.1%,-12%,-8
O=C(CN(C(=O)CNC(=O)c1ccco1)c1ccc(F)cc1)NC1CCCC1,-7%[15.4 µM],11%,2.4,-1,·,11%,-2
S=C(c1ccc(-c2cccc(Cl)c2)o1)N1CCOCC1,?,20µM*,2.8,-18,-0.9%,-18%,15
CCCCn1c(SCC(=O)c2ccc(O)cc2O)nc2cc(S(N)(=O)=O)ccc21,?,-22%,3.9,6,·,-23%,13
Cc1ccc(C(=O)NC(NC(=O)c2ccc(C)cc2)C(Cl)Cl)cc1,-3%,24%,0.9,-13,-0.9%,8%,2
CN(C)CCNC(=O)c1ccccc1,-42%[inhibitor],4%,5.2,3,1.2%,8%,-10
O=C(CN1CCN(Cc2ccc3c(c2)OCO3)CC1)Nc1ccc2[nH]c(=O)[nH]c2c1,5%[15.4 µM],·,·,·,0.0%,5%,-2
CCn1ccnc1CNC(=O)CC1C(=O)NCCN1Cc1ccc(F)cc1Cl (stereo not given),21%,-27%,·,6,-12%,12%,-3
COc1ccc(C(=O)NC2CCCc3c2cnn3-c2cccc(C)c2C)c(OC)n1 (stereo not given),10%,-7%,2.4,-12,-0.6%,40µM*,20
Cc1ccccc1C(=O)NN1CC(C(=O)OCc2ccc(Cl)c(Cl)c2)CC1=O (stereo not given),6%,-3%,·,25,0.8%,32µM*,-10
O=C(CSc1nnnn1-c1cccc2c1CCCC2)N1CCCC1,-16%,?,-5.7,-6,0.1%,-1%,-8

# Source: PubChem
